TRPML1 blocker: blocks the human TRPML1 channel; Q9GZU1; TRPML1-inducible cells, Ca2+ dye fluorescence, FDSS; stronger effect = lower value; inhibition of EC80 agonist-evoked calcium signal; activity change, negative = inhibition, % (concentration not given with the values); actives 0.02% (n = 390,000); in the data active means activity change below about -50%; inconclusive means about -30% to -50%; inactive means above about -30%;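 further: stimulus is agonist 54-4 at its EC80 concentration; on the % scale 0 is the no-effect control and ±100 the full control effect; compound concentration not given in the record; the text of the record puts the active cut at -80%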
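Tet-induced TRPML1-DL cells loaded with Ca8 no-wash calcium dye were read kinetically on FDSS. Compound addition was followed by EC80 agonist 54-4 (4 uM final); inhibition was read over 110 s.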
TRPML1 agonist: activates the human TRPML1 channel; Q9GZU1; TRPML1-expressing cells, Ca2+ dye fluorescence, FDSS; host cell line not named in the record; reference of the full effect not given here; activation, % (no concentration beside the values); actives 0.12% (n = 410,000); AID 624414; in the data active = activation above about 50%; inconclusive = about 30% to 50%; inactive = below about 30%; further: 0% is about no effect; the text of the record puts the active cut at 80%
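In this qHTS format, compounds were pin-transferred onto Ca8-dye-loaded TRPML1-DL cells induced with Tet overnight, and intracellular Ca2+ fluorescence was recorded kinetically for 110 s after a 10 s baseline. A subsequent 4uM final 54-4 (EC80) addition followed by a second 110 s read served as the antagonist phase.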
ClpP mod: qHTS Assay for Activators of ClpP | Potency, µM (series often up to 57.5 µM), inactives show top-dose activity change, negative = active | purified B. subtilis ClpP, FRET peptide cleavage, 20 min | actives 1.9% (n = 340,000) | AID 651965, 2013 | ATP-dependent Clp protease proteolytic subunit (Bacillus subtilis (strain 168)), P80244; active = well fitted falling curve with a large enough effect; inconclusive = small, poorly fitted or top-dose-only effect; inactive = no such curve, though single readings can be large or run the other way; further: potency means the concentration at half of the fitted maximal effect; the source files actives as falling curves though it sought activators and does not explain the sign; nearly all actives have a fitted effect of over 65% in size; many hits overshoot -100%
Target sequence (P80244 whole entry, looked up): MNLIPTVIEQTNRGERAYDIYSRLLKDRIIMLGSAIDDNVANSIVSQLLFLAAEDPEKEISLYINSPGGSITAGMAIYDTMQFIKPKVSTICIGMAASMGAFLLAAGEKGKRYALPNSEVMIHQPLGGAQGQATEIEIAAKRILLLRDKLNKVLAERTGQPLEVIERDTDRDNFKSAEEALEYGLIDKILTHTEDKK
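FRET quenching reversal measured ClpP activation: 10 microg/mL B. subtilis ClpP at pH 8 with the FRET-FV decapeptide, read at 430 nm after 320 nm excitation. The 20-min minus 0-min signal was scaled between DMSO/no-enzyme wells and ADEP (5.8 microM final).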
Menin-MLL FL inh: displaces fluorescein MLL peptide from human menin. FP activity change, % at 61.4 µM. Fluorescence polarization, fluorescein-MLL peptide displacement from menin. 290,000 tested, under 10 active. AID 1766; inconclusive = falling polarisation curve, or a change in total fluorescence; inactive = total fluorescence flat and polarisation flat or rising; no compound was filed as active; the % refers to the polarisation; negative = inhibition;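 further: % of control where 0% means no effect; inhibitors lower the polarisation; unlabelled MLL peptide was the positive control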
PINK1 modulator: changes PINK1 expression; PINK1 immunofluorescence, high-content cytometry, 24 h; AID 624263; actives 0.2% (n = 410,000); Potency, µM (top dose mostly 76.6 µM), inactives show at the highest dose activation (PINK1 increase), actives largely listed as activators; active = well fitted activation curve with a large enough effect; inconclusive = small, poorly fitted or top-dose-only effect; inactive = flat fitted curve, though single readings scatter; cell line not stated here;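 further: potency means the concentration at half of the fitted maximal effect; % of control where 0% means no effect; nearly all actives have a fitted effect of over 65% in size; a mitochondrial uncoupler was the plate control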
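Fluorescence from anti-PINK1 antibody, together with nuclear and cell stains, was scanned on a laser-scanning cytometer. Before staining, stable-line cells were incubated 24 hours with compounds at 5 concentrations; primary antibody 12 h at 10 degrees C.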
TRPV1 potentiator: potentiators of human vanilloid receptor 1 (TRPV1). Q8NER1. TRPV1-expressing cells, Fluo-8 calcium influx, capsaicin EC20 potentiation; host cell line not named in the record; control for the full effect not named in the record. potentiation, % at 8.33 µM. actives 0.02% (n = 320,000). AID 540277; active means potentiation above 80%; inconclusive means 30% to 80%; inactive means below 30%; further: 0% is about no effect
Target sequence (Q8NER1 whole entry, looked up): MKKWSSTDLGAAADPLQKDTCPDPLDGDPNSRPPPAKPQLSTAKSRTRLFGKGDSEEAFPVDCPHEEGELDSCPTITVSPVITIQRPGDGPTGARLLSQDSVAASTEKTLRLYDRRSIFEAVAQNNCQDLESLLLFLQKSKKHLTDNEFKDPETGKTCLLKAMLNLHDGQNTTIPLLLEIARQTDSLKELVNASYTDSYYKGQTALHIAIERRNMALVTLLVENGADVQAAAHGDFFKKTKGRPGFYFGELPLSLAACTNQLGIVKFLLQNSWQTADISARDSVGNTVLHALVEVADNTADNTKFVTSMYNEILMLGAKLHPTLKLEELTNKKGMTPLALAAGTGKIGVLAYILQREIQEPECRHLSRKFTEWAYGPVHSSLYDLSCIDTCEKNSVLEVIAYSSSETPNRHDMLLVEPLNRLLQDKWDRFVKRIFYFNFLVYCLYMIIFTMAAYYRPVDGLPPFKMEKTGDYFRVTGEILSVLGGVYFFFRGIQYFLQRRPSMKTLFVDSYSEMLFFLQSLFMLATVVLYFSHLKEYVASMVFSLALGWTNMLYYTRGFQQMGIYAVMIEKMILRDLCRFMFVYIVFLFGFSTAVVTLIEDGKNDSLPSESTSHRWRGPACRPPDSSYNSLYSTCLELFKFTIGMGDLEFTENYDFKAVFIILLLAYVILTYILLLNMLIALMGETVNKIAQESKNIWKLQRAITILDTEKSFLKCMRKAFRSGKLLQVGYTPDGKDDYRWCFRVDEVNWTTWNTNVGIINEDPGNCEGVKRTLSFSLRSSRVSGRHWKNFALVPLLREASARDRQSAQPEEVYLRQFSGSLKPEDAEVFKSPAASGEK
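TRPV1-expressing cells were cultured overnight at 35.5C and loaded with Fluo-8 calcium dye for 40 to 90 min at room temperature. After a 10 s baseline, compound was added and calcium influx was read kinetically for 3 min (ex 480/em 520 nm).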
Sfp PPTase inh: Sfp phosphopantetheinyl transferase inhibition | actives 3.5% (n = 310,000) | AID 1490 | Q9F4F7 | Potency, µM, for the others: max response, negative = inhibition, most hits filed as inhibitors | Biochemical Sfp PPTase activity, qHTS; active means well fitted inhibition curve with a large enough effect; inconclusive means small, poorly fitted or top-dose-only effect, or another doubt; inactive means no such curve, though single readings can be large or run the other way;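 further: the enzyme is Sfp with the accession as filed and its product quenches rhodamine fluorescence; potency means the concentration at half of the fitted maximal effect; 0% = enzyme reaction without inhibitor and -100% = no enzyme wells; top concentration of the series not given in the record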
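Sfp 15 nM + cpd, 15 min RT; start w/ rhodamine-CoA 5 uM, BHQ-2-YbbR 12.5 uM (final); 50 mM Hepes pH 7.6, 10 mM MgCl2, 0.01% NP-40, 0.01% BSA; read 525/598 nm at 0 and 30 min.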
* hit, by the source's call; ? = inconclusive; . = no result given; & = joins results of further samples; [ ] = remark or other dose.

SMILES	TRPML1 blocker	TRPML1 agonist	ClpP mod	Menin-MLL FL inh	PINK1 modulator	TRPV1 potentiator	Sfp PPTase inh
Cc1cc(C)c2c(n1)nn1c(NCCCn3ccnc3)cc(C)nc21	.	.	.	-0.5	.	4	7%
C=CCNC(=O)c1ccccc1S(=O)c1ccccc1C#N (stereo not given)	30	-0.4	-1.4%	4.4	0.4%	3	3%
COc1ccccc1N1CCN(C(=O)CCNS(=O)(=O)c2ccc3c(c2)CCC(=O)N3)CC1	-4	-0.1	1.7%	7.1	1.9%	-4	-3%
Cn1c(N2CCOCC2)c(C=O)c2ccccc21	-3	0.1	-4.1%	-8.3	2.0%	7	5%
CC(=O)N1CC(=O)N=C1SCC(=O)Nc1nc(-c2ccccc2)c(-c2ccccc2)s1	-14	-0.1	?	10	4.5%	-2	-9%
Cc1c(CCO)sc[n+]1CC(=O)OC12CC3CC(CC(C3)C1)C2	-22	0.5	0.7%	0.3	1.5%	2	19%
COc1ccc(/C=N/Nc2nncc3ccccc23)cc1	-13	0.2	.	-2.4	-2.5%	-10	50µM*
CCOC(=O)CCCNC(=O)COC(=O)CCC(=O)c1ccc(F)cc1	43	-0.2	0.9%	-1.3	2.5%	?	19%
O=C1C(=Cc2ccc(F)cc2)Cc2ccccc21	.	-0.9	-3.2%	.	1.7%	.	.
Cc1cccc(CN2CCN(CC(=O)NCCCN3CCCC3=O)C2=O)c1	41	0.4	-2.0%	-0.3	-1.5%	1	10%
Cc1ccc(S(=O)(=O)NCc2ccc(C(=O)NC3CCCCC3)cc2)cc1	0	-1.5	-3.5%	.	0.8%	22	22%
CCc1ccc2[nH]cc(C(=O)N3CCCCCC3)c(=O)c2c1	22	0.0	-4.2%	3.2	-2.5%	3	13%
CCOC(=O)C(NC(C)=O)(NS(=O)(=O)c1ccccc1)C(F)(F)F (stereo not given)	3	-0.3	-5.0%	-0.2	-0.7%	0	17%
CS(=O)(=O)Nc1ccc(-c2nc3ccccc3s2)cc1	24	2.1	3.8%	.	0.6%	.	.
Nc1nc(N)nc(-c2cc(Cl)ccc2Cl)n1	40	0.5	4.8%	1.8&0.6	0.7%	.	3%&20%
O=C1CC(N(O)c2ccccc2)C(=O)N1c1cc(Cl)cc(Cl)c1 (stereo not given)	-11	-1.0	3.6%	-0.1	-0.1%	-2	-10%
Cc1occc1C(=O)N/N=C/c1ccc(Cl)c([N+](=O)[O-])c1	-12	0.0	-2.9%	-0.7	25%	-12	7%
COc1cccc(NC(=O)COC(=O)c2c(C)nn(-c3ccccc3)c2C)c1	14	2.3	-2.2%	.	-0.5%	11	.
Cc1ccc(NC(=S)N2CCN(S(=O)(=O)c3ccccc3)CC2)cc1C	3	0.5	0.1%	.	11%	-4	12%
O=S(=O)(Nc1ccc(NS(=O)(=O)c2ccccc2)cc1)c1ccccc1	0	-0.4	-0.7%	.	-0.1%	.	.
CC(=O)Nc1nnc(SCc2ccc(C(=O)Nc3ccccc3F)cc2)s1	3	1.5	.	-1.4	1.7%	-5	-4%
Cc1nnc2ccc(-c3ccc(NC(=O)Cc4cccs4)cc3)nn12	23	2.4	.	15	0.5%	10	-1%
O=C(CCn1c(=O)c2cccn2c2ccccc21)Nc1ccc(F)cc1	2&-27	0.1&2.3	-2.7%&-3.1%	.	2.8%&-0.7%	-11	-2%
O=C(CN1CCCCC1)Nc1nnc(-c2ccc([N+](=O)[O-])cc2)s1	-1	-0.5	-0.7%	4.0	-2.1%	1	4%
COc1ccccc1NC(=O)c1cc2n(n1)C(C(F)(F)F)CC(c1ccc3c(c1)OCO3)N2 (stereo not given)	35	1.7	1.1%	7.6	6.0%	0	24%
O=C(COC(=O)c1ccccc1O)NCc1ccco1	-2	1.2	.	.	2.0%	.	.
CN1CCN(c2ccc(NC(=O)c3cc([N+](=O)[O-])ccc3N3CCOCC3)cc2)CC1	-13	-0.1	2.3%	-6.0	-0.9%	8	0%
CCOC(=O)C1=C(O)/C(=C\c2ccc(OC)c(OC)c2)N=C1C	5	-0.1	-1.0%	1.6	2.4%[38.3 µM]	-4	-6%
Cc1ccc(CNC(=O)CSc2nnc(C)c3c(C)n(-c4ccccc4)nc23)cc1	-1	0.7	0.5%	.	0.3%	.	.
O=C(NCc1n[nH]c(=O)c2ccccc12)C1CC(=O)N(c2ccc(Cl)cc2)C1 (stereo not given)	5	1.0	-4.2%	.	-0.6%	1	.
Cn1cc(CN2CCC(C(O)CCc3ccccc3)CC2)c(-c2ccccc2F)n1 (stereo not given)	-2	-0.5	.	2.6	-1.2%	-5	3%
O=c1[nH]c(=O)n(Cc2ccc(Oc3ccccc3)cc2)cc1Br	.	.	.	8.7	.	1	1%
CCCN1C(=O)c2cc(C(=O)Nc3ccc(OC)cc3OC)ccc2C1Nc1ccc(OC)cc1OC (stereo not given)	2	-0.3	.	-1.7	6.3%	-2	7%
Cc1cc(C(F)(F)F)nn1C(=O)c1cccnc1Cl	-6	-0.3	-2.2%	-2.1	0.4%	13	7%
CCN1CCN(C(=O)Cn2ncc3c([nH]c4ccc(C)cc43)c2=O)CC1	-3	0.4	.	.	-1.0%	4	16%
COc1cc(OC)c(OC)cc1/C=C/c1nc2ccccc2o1	.	-1.0	?	.	2.0%	.	.
COC(=O)c1[nH]c2ccc(Br)cc2c1NC(=O)Oc1ccccc1	15	-0.2	-17%	-0.1	0.3%	9	-7%
COc1ccc(S(=O)(=O)N2CCCCC2)cc1NC(=O)C1CCCO1 (stereo not given)	-10	-0.3	.	-0.8	-1.9%	-3	26%
CCOC(=O)C1(C)CCCN(C(=O)c2cccc(OC(F)(F)F)c2)C1 (stereo not given)	.	-0.9	5.0%	.	5.0%	.	.
O=C(c1ccccc1)N1CCN(c2ccccc2)CC1	13	1.0	.	.	-2.6%	.	.
CN(C(=O)CSc1cc(C(=O)c2nccn2C)c2ccccc2n1)c1ccccc1	-4	0.8	.	-0.9	-2.2%	14	-9%
CC(Oc1cccc(Br)c1)C(=O)Nc1cccc(S(=O)(=O)N2CCOCC2)c1 (stereo not given)	5	2.4	-1.7%	.	2.9%	.	.
O=C(Nc1c2c(nn1-c1ccc(Cl)cc1)CS(=O)(=O)C2)c1ccccc1	3	-0.6	-1.1%	.	1.4%	4	20%
CC(C)c1nc2sc3c(=S)nc[nH]c3c2c2c1CCC2	-2	-0.4	0.2%	1.5	-1.6%	4	10%
CCN(C(=O)Cc1c(C(=O)O)[nH]c2ccccc12)c1ccc(OC)cc1	-8&-18	-0.1&-0.1	-21%	2.3	-1.0%&-0.3%	7	5%
CCOc1ccccc1NS(=O)(=O)c1ccc2oc(=O)c3ncn(C)c3c2c1	-19	-1.2	1.4%	.	2.1%	.	.
N#Cc1ccc(N)cc1OCCCN1CCCCC1	1	-0.7	.	.	-0.1%	.	.
CCCn1ccc2c(OCC(=O)Nc3ccc(NC(C)=O)cc3)cccc2c1=O	-11	0.3	?	.	4.1%	0	.
CCC(=O)N1CCc2cc(Br)cc(S(=O)(=O)NCc3ccco3)c21	-6	2.6	0.1%	1.3	1.6%	26	-6%
C/C(=N\OCC(=O)Nc1ccc(Br)cc1)c1cccs1	17	0.6	0.4%	2.8	4.5%	3	5%
COC(=O)[C@]12CCCCC=C1N(Cc1ccco1)C(=O)[C@H](CC(=O)NCCCCc1ccccc1)C2	.	-0.6	1.6%	.	-1.0%	.	.
CCCCCCSc1cc(-c2nc3ccc(Cl)cn3c2NCCCC)ccc1OC	0	0.8&-0.1	?	.	5.2%&6.9%	25	.
O=Nc1c(O)n(Cc2ccc(Cl)c(Cl)c2)c2ccccc12	10	-0.3	-0.9%	2.2	15%	15	-10%
COc1cc(CN2CCN(S(=O)(=O)c3ccccc3)CC2)cc(OC)c1OC	.	.	-1.8%	-6.6	0.3%	-12	?
Cc1ccccc1NN=Nc1nc2c([nH]1)c(=O)n(C)c(=O)n2C	-2	-0.2	-4.6%	1.4	1.1%	-9	-15%
Cc1ccc(-c2nnc(Nc3ccc(F)cc3)c3ccccc23)cc1S(=O)(=O)NC(C)C	33	-1.0	?	.	6.3%	.	.
COc1ccccc1CNS(=O)(=O)c1c(C)noc1C	-10	-0.8	0.9%	-4.0	2.0%	-5	8%
COc1ccc(C(=O)COC(=O)CCCC(=O)Nc2ccc(C(C)=O)cc2)cc1	8	0.0	2.0%	.	2.5%	.	.
COC(=O)[C@H]1C[C@H](O)CN1S(=O)(=O)c1ccc(Br)cc1F	1	-0.8	0.4%	.	-0.8%	.	.
COc1ccc(Nc2nnc(SCc3cc(=O)n4ccsc4n3)s2)cc1	-4	1.3	-6.0%	?	19%[38.3 µM]	-3	56µM*

More results follow.
SMILES	TRPML1 blocker	TRPML1 agonist	ClpP mod	Menin-MLL FL inh	PINK1 modulator	TRPV1 potentiator	Sfp PPTase inh
O=C(CN1C=NS(=O)(=O)c2ccc(C(F)(F)F)cc21)Nc1cccc(C(F)(F)F)c1	-1	-0.3	43%	.	1.0%	.	.
CCn1c(SCc2nc3ccccc3c(=O)[nH]2)nc2ccccc21	46	2.1	.	-1.3	0.8%	?	1%
O=C(Nc1cccc(OC(=O)c2cccnc2)c1)c1cccnc1	1	-0.1	0.4%	-0.1	-2.1%[38.3 µM]	-8	7%
COC(=O)c1c(NC(=O)Nc2ccc(Cl)cc2)sc(C)c1C	19&-3	0.2&-0.8	-25%	6.3	5.7%&8.3%	5	-3%
COc1ccc(-c2nnc(SCC(=O)c3ccco3)n2-c2ccccc2)cc1	2	-0.4	-5.6%	-8.7	6.4%	-8	9%
CC(C)Cn1c(N)c(C(=O)CSc2ncnc3sc4c(c23)CCCC4)c(=O)n(C)c1=O	-3	0.4	.	-0.8	2.5%	2	-6%
O=C(NNC(=O)c1ccccn1)c1cccc([N+](=O)[O-])c1	6	0.1	.	-5.0	2.7%	1	7%
COc1ccccc1NC(=O)C(=O)NCC(c1ccc2c(c1)OCO2)N1CCN(C)CC1 (stereo not given)	-9	-0.4	-0.7%	.	-0.3%	.	.

Screens deposited in PubChem BioAssay by National Center for Advancing Translational Sciences (NCATS).
